# VDR inhibitor: Inhibitors of the vitamin D receptor (VDR): qHTS. Vitamin D3 receptor (Homo sapiens), P11473. VDR-SRC2-3 peptide fluorescence polarization, 2 h. Potency, µM, without a hit: max response, negative = inhibition, most hits filed as inhibitors. actives 0.93% (n = 400,000). AID 504847, 2011; active = well fitted inhibition curve with a large enough effect; inconclusive = small, poorly fitted or top-dose-only effect, or another doubt; inactive = no such curve, though single readings can be large or run the other way; also: series mostly up to about 120 µM
# Target sequence (P11473 whole entry, looked up): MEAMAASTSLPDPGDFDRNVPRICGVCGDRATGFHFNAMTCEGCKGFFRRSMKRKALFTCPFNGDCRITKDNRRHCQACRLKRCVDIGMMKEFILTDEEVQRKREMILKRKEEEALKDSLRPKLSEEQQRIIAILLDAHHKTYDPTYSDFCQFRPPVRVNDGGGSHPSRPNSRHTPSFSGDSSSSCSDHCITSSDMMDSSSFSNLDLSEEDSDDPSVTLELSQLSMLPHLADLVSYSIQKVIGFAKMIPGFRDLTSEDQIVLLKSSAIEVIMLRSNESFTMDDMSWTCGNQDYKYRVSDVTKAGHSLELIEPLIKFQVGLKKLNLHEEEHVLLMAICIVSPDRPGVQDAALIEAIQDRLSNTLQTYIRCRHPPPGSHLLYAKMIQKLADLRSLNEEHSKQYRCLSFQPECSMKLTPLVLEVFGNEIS
#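 Measured by FP: displacement of SRC2-3 coactivator peptide from VDR by library compounds, following a two-hour ambient incubation.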
# Starred values were filed as active, the others as inactive; ? = inconclusive; & = joins results of further samples. % is scaled to controls: 0 for no effect and ±100 for the full control effect; potency is read from the fitted curve at half-maximal effect. Not all compounds are listed; the hit share may differ from the screen's.
canonical_smiles	VDR inhibitor
COc1ccc(C(=O)NNC(=O)C2CCCO2)cc1 (stereo unspecified)	?
COc1ccc(-c2noc(CN3CCCC(OCc4ccccn4)C3)n2)cc1 (stereo unspecified)	-9%
Nc1c(Cl)cc(C(=O)NC2CC2)cc1Cl	25%
O=C(O)CCC1OC(=O)C(O)=C1c1ccccc1 (stereo unspecified)	-14%
Cc1nnc(NC(=O)c2c(-c3ccccc3Cl)noc2C)s1	14%
CCCc1nc(SCC(=O)N2CCCc3ccccc32)c2c(=O)n(C)c(=O)n(C)c2n1	-7%
Cc1ccccc1CNC(=O)COc1ccccc1	1%
COc1cccc(-c2noc(C3CCCN(C(=O)CC(C)(C)C)C3)n2)c1 (stereo unspecified)	-8%
Brc1ccc(NC(c2ccccc2)c2ccncc2)cc1 (stereo unspecified)	?
CCn1c(SCC(=O)Nc2cc(OC)ccc2OC)nc2c(c1=O)SCC2	-2%
CC(C)(C)NC(=S)N/N=C/c1c(Cl)cccc1Cl	-1%
N/C(=N\OC(=O)c1cccc(C(F)(F)F)c1)c1cnccn1	-7%
CCOc1ccc(Cc2c(C)[nH]c3ccc(C(=O)O)cc3c2=S)cc1	-13%
O=C(O)CCCCCCC1C(=O)NC(=O)N1CCC(O)C1CCCCC1 (stereo unspecified)	-12%
CC(C)(C)NC(=O)Cn1nnc(-c2cccs2)n1	13%
Cn1c(SCc2c(Cl)cccc2Cl)nnc1-c1cccs1	13%
CNS(=O)(=O)c1ccc(Oc2ccc(S(=O)(=O)NC)cc2)cc1	-2%
O=C(CSc1ccccc1)N1CCc2c([nH]c3ccccc23)C1c1ccc(F)cc1 (stereo unspecified)	-14%
COc1cccc(NC(=O)CN(C)C(=O)c2ccc(-c3cccc(C(F)(F)F)c3)o2)c1	4%
O=C(COc1ccc(Br)cc1)N(Cc1cccs1)C1CCS(=O)(=O)C1 (stereo unspecified)	-4%
COc1ccccc1CNC(=O)C(CC(C)C)N1Cc2ccccc2C1=O (stereo unspecified)	-4%
O=C1CC(N2CCN(Cc3ccccc3)CC2)C(=O)N1CCc1ccccc1 (stereo unspecified)	-3%
COc1cccc(NC(=O)Cn2c(CCC(=O)O)ccc2-c2ccc(Cl)cc2)c1	-2%
C[N+]1([O-])[C@@H]2Cc3cc4c(cc3[C@@H]1Cc1cc3c(cc12)OCO3)OCO4 (stereo partly specified)	5%
CCOc1cc(CNC(=O)Cn2c(-c3cccs3)cc3cc(F)ccc32)ccc1OC	18%

canonical_smiles	VDR inhibitor
CCCC(=O)c1ccc2c(c1)OCCO2	3%
Cc1cc(NC(=O)Cn2nc(C(=O)O)c3ccccc3c2=O)c([N+](=O)[O-])cc1C	-4%
CC(C)c1nc(SCC(=O)NC(=O)NC(C)(C)C)n[nH]1	8%
COc1ccc(C(OCC(O)CNCCc2ccccc2)c2ccc(OC)cc2)cc1 (stereo unspecified)	-22%
CSCCNC(=O)c1ccc(OC2CCN(S(=O)(=O)N(C)C)CC2)cc1	?
O=C(NC1CC2CCCC(C1)N2Cc1ccccc1)c1cccc(F)c1 (stereo unspecified)	3%
COC(=O)CNC(=O)COC(=O)/C=C/c1ccc2ccccc2n1	-12%
CC1CCCN(C(=O)Cn2nnc(-c3ccc(S(C)(=O)=O)cc3)n2)C1 (stereo unspecified)	-11%
CN(Cc1ccccc1)c1ccc(N2C(=O)CCC2=O)cc1[N+](=O)[O-]	-28%
Cc1csc2ncc(C(=O)N3CCCc4ccccc43)c(=O)n12	-24%
COc1ccc(S(=O)(=O)Nc2cc(S(=O)(=O)N3CCOCC3)ccc2OC)cc1	-7%
COc1cccc(C(=O)COC(=O)C(C)N2C(=O)c3ccccc3C2=O)c1 (stereo unspecified)	3%
COCCN1C(=O)N[C@@H](c2cccc(C(F)(F)F)c2)[C@H](C(=O)OC)[C@H]1C	-11%
O=C(Nc1ccccc1)C1=C[C@@H](c2coc3ccccc3c2=O)C[C@@H](OCc2ccc(CO)cc2)O1	-6%
COc1ccccc1C1C(C#N)=C(N)Oc2c1c(-c1ccccc1)nn2-c1ccccc1 (stereo unspecified)	-21%
Cc1noc(C)c1-c1nc(NCCN2CCOCC2)c2ccccc2n1	-15%
O=c1c2ccccc2nc2n1C(CSCc1ccccc1)CS2 (stereo unspecified)	16%
COc1ccc(N2CCN(c3nc4c(c(=O)n(C)c(=O)n4C)n3CCCc3ccccc3)CC2)cc1	13%
Cc1ccc(S(=O)(=O)Cc2ccc(C(=O)N3CCN(c4cccc(Cl)c4)CC3)o2)cc1	-28%
Cc1noc(C)c1COC(=O)CN(C)S(=O)(=O)c1ccc(Cl)cc1	-12%
O=C(c1ccc(Cl)c(S(=O)(=O)N2CCOCC2)c1)N1CCCCCC1	-13%
CC1S/C(=N/N=C/c2ccco2)N(Cc2ccc(F)cc2)C1=O (stereo unspecified)	-16%
CC(C)(C)c1ccc(-c2noc(-c3ccno3)n2)cc1	5%
O=C1CN(S(=O)(=O)c2cccc(Cl)c2Cl)CCN1	-16%
CC(Cc1ccccc1)N1CCCC1=O (stereo unspecified)	2%

canonical_smiles	VDR inhibitor
CC1(C)CC(NS(=O)(=O)c2ccc(C(C)(C)C)cc2)CC(C)(C)N1	5%
O=C(CSc1nnnn1C1CCCCC1)Nc1cccc(NC(=O)c2ccco2)c1	-10%
CCOc1ccc(N(CC(=O)Nc2ccccc2CC)S(=O)(=O)c2c(C)noc2C)cc1	8%
CC(C)Nc1nnc(SCC(=O)c2c[nH]c3ccccc23)s1	7%
COc1cc(OC)c(OC)cc1CN(C)CCc1ccccn1	17%
CC(=O)c1ccc(Sc2ccccc2)cc1	-21%
CCC(C(=O)OC)n1cnc2c(cnn2-c2ccc(Cl)cc2)c1=O (stereo unspecified)	-2%
O=C(COC(=O)/C=C/c1cccc([N+](=O)[O-])c1)NCc1ccco1	-11%
O=C(O)CC/C(=N/NC(=O)CNC(=O)Cc1ccccc1)c1ccccc1	-18%
COc1ccc(-c2csc3ncn(CC(=O)N4CCOCC4)c(=O)c23)cc1	-7%
CC(=O)c1ccc2c(c1)CCN2	6%
Cc1ccc(OC(=O)COc2ccccc2)c(-n2nc3ccccc3n2)c1	-2%
COc1ccc(/C=N/NC(=S)NCC2CCCO2)cc1 (stereo unspecified)	-19%
Cc1ccc(SCc2ccc(C(=O)NCc3cccnc3)cc2)cc1	-8%
N#Cc1c(Cl)nsc1NCCN1CCOCC1	-2%
CCN1C(=O)C(CC(=O)Nc2ccc(F)cc2)N(Cc2ccco2)C1=S (stereo unspecified)	-12%
CC(=O)NC(CC(=O)Nc1ccc(S(=O)(=O)Nc2nccs2)cc1)c1ccccc1 (stereo unspecified)	0%
COCCCNC(=O)CN1C(=O)CSc2ccc(S(=O)(=O)N3CCOCC3)cc21	-17%&11%
CC(C)n1ncc2c(C(=O)Nc3ccc(S(C)(=O)=O)cc3)cc(C3CC3)nc21	0%
COc1ccc(OC)c(NC(=O)C2CCCCC2C(=O)O)c1 (stereo unspecified)	14%
CCOc1cc(-c2cc(-c3ccc(C)cc3)nc(N)c2C#N)ccc1O	17%
COc1cccc(NC(=O)CSc2nn3c(=O)c(C)nnc3s2)c1	14%
CN(c1ccc(C(=O)O)cc1)S(=O)(=O)c1ccc(Cl)cc1	0%
CCCCOC(=O)Nc1cccc(C(=O)OCC)c1	-12%
Cc1nn(Cc2ccccc2)c(=O)n1N(C)c1ncc(C(F)(F)F)cc1Cl	-2%

canonical_smiles	VDR inhibitor
COc1ccc(-c2cc(C(=O)N3CCN(c4ncccn4)CC3)c3ccccc3n2)cc1	8%
CCCCCCCCNc1ncnc2[nH]ncc12	-7%
CCCCNC(=O)C1CCCN(S(=O)(=O)c2ccc(-n3cnnn3)cc2)C1 (stereo unspecified)	-8%
CCCCN(CC)CCCNC(=O)c1nn(C)c2c1CSc1ccccc1-2	2%
O=C(COC(=O)c1cc(-c2cccnc2)nc2ccccc12)Nc1ccc(F)cc1F	1%
O=c1c(-c2ccco2)[n+]([O-])c2ccccc2n1OCc1ccccc1	-29%
COC(=O)c1c(-c2cccs2)csc1NC(=O)COc1ccccc1	-18%
CCOC(=O)C(Cc1ccccc1)NC(=O)CCc1nnc2ccc(N3CCCCC3)nn12 (stereo unspecified)	-3%
CN1C(=O)C(C)(C)c2cc(S(=O)(=O)NCC3CCC(C(=O)NCc4ccc(F)cc4)CC3)ccc21 (stereo unspecified)	-9%
CCOc1ccc2nc(N3CCCC(C(=O)NCc4ccccc4OC)C3)sc2c1 (stereo unspecified)	26%
Cc1ccc(NC(=O)c2cc(S(=O)(=O)N3CCOCC3)cn2C)c(C)c1	-5%
CCOC(=O)N1CCN(C(=O)COc2ccc([N+](=O)[O-])cc2)CC1	-12%
CCn1cc(CN2CCC(C(=O)Nc3cccc(-c4cccc(F)c4)c3)CC2)cn1	8%
O=C(C1=NN[C@@H]2C(=O)N(c3cccc(C(F)(F)F)c3)C(=O)[C@H]12)C(c1ccccc1)c1ccccc1	8%
CCCCN(C(=O)Nc1ccccc1)C1CCS(=O)(=O)C1 (stereo unspecified)	-16%
CCOC(=O)C1CCCN(C(=O)c2cc3cc(Br)ccc3oc2=O)C1 (stereo unspecified)	2%
CC1CN2C(c3ccc(Cl)cc3)=CSC2=N1 (stereo unspecified)	-4%
Cc1cc(C)nc(Nc2ncc(O)n2-c2ccccc2)n1	-9%
COc1ccc(CCN2CC(C(=O)NCc3cccc4[nH]ccc34)CCC2=O)cc1 (stereo unspecified)	16%
CC(NC(=O)c1cc2c(s1)CCCC2)C(C)(C)C (stereo unspecified)	-3%
O=C(Cc1ccccc1[N+](=O)[O-])OCC(=O)N1CCN(c2ccccc2)CC1	-6%
Cc1ccc(NS(=O)(=O)c2ccc(OCC(=O)NCc3ccco3)cc2)cc1	3%
O=C(CSc1nnnn1C1CCCC1)N1CCOCC1	-6%
CCOc1ccc(Nc2nc(Cc3nnc(SCC(=O)c4ccc(C)cc4)o3)cs2)cc1	6%
COc1ccc(F)cc1S(=O)(=O)n1nnc2ccccc21	?

# 2 neighbouring records already listed, quoted:
canonical_smiles	VDR inhibitor
COc1ccc(CCN2CC(C(=O)NCc3cccc4[nH]ccc34)CCC2=O)cc1 (stereo unspecified)	16%
CC(NC(=O)c1cc2c(s1)CCCC2)C(C)(C)C (stereo unspecified)	-3%

# (continued)
canonical_smiles	VDR inhibitor
CCOc1ccc(OCC)c(NC(=O)C2CCCN(c3nc(C)cc(C)n3)C2)c1 (stereo unspecified)	0%
O=C(CC12CC3CC(CC(Br)(C3)C1)C2)NC1=NCCS1	6%
O=C(NCc1ccc2c(c1)OCO2)c1ccccn1	10%
Cc1ccc(NC(=O)c2nnn(Cc3ccccc3)c2N)cc1C	5%
Cc1c(NC(=O)c2cccc3c(Cl)cccc23)cccc1-c1nc2ccccc2o1	4%
CN1CCCN(C(=O)C2CCCCC2)CC1	13%
Cc1ccc(S(=O)(=O)CCC(=O)OCC(=O)N2CC(=O)Nc3ccccc32)cc1	1%
CCOc1cccc(NC(=O)C2CC(=O)N(C)C2)c1 (stereo unspecified)	12%
Cc1ccc(C(=O)NNC(=O)C2CSC3(C)CCC(=O)N23)cc1 (stereo unspecified)	-2%
CCOC(=O)/C(C#N)=C\c1ccc(N2CCN(C)CC2)cc1	-7%
O=c1c2oc3ccccc3c2n(Cc2ccc(Cl)cc2)c(=O)n1Cc1ccco1	7%
CCCCCCc1cc2cc(-c3nnc(-c4cccc(Cl)c4)o3)c(=O)oc2cc1O	-15%
COc1ccc(NC(=O)C/C(C)=N/NC(=O)c2cccs2)c([N+](=O)[O-])c1	25%
CCNC(=S)Nc1ccccc1-c1ccccc1	-6%
CC1CCn2c(nc3cc(C(=O)NCc4ccc(OC(C)C)cc4)ccc32)C1 (stereo unspecified)	14%
CCC(C)Nc1nc2c(c(=O)n(C)c(=O)n2C)n1C (stereo unspecified)	29%
Cn1ccnc1C(O)(c1ccccc1)c1ccccc1	-12%
CC(C(=O)Nc1ccccc1Oc1ccccc1)c1ccccc1 (stereo unspecified)	-9%
c1ccc(C[C@H]2CN=C(Nc3ccccc3)N2CCCC2CCCC2)cc1	3%
CCOc1ccc(CNC(=O)c2nnc(CS(=O)(=O)c3ccccc3)o2)cc1OC	3%
O=C(O)c1cccc(N2C(=O)c3cccc4c(Cl)ccc(c34)C2=O)c1	-5%

# A portion of the results above, as a working copy:
canonical_smiles	VDR inhibitor
CCOc1ccc(OCC)c(NC(=O)C2CCCN(c3nc(C)cc(C)n3)C2)c1 (stereo unspecified)	0%
O=C(CC12CC3CC(CC(Br)(C3)C1)C2)NC1=NCCS1	6%
O=C(NCc1ccc2c(c1)OCO2)c1ccccn1	10%
Cc1ccc(NC(=O)c2nnn(Cc3ccccc3)c2N)cc1C	5%
Cc1c(NC(=O)c2cccc3c(Cl)cccc23)cccc1-c1nc2ccccc2o1	4%
CN1CCCN(C(=O)C2CCCCC2)CC1	13%
Cc1ccc(S(=O)(=O)CCC(=O)OCC(=O)N2CC(=O)Nc3ccccc32)cc1	1%
CCOc1cccc(NC(=O)C2CC(=O)N(C)C2)c1 (stereo unspecified)	12%
Cc1ccc(C(=O)NNC(=O)C2CSC3(C)CCC(=O)N23)cc1 (stereo unspecified)	-2%
CCOC(=O)/C(C#N)=C\c1ccc(N2CCN(C)CC2)cc1	-7%
O=c1c2oc3ccccc3c2n(Cc2ccc(Cl)cc2)c(=O)n1Cc1ccco1	7%
CCCCCCc1cc2cc(-c3nnc(-c4cccc(Cl)c4)o3)c(=O)oc2cc1O	-15%
COc1ccc(NC(=O)C/C(C)=N/NC(=O)c2cccs2)c([N+](=O)[O-])c1	25%
CCNC(=S)Nc1ccccc1-c1ccccc1	-6%
CC1CCn2c(nc3cc(C(=O)NCc4ccc(OC(C)C)cc4)ccc32)C1 (stereo unspecified)	14%
